CDC25B-CDK2 inh = human CDC25B-CDK2/CyclinA binding inhibition | P30305+P24941 | HTRF CDC25B-CDK2/CyclinA binding, anti-His/anti-Flag; hits give high values | z-score (concentration not given with the values) | actives 0.72% (n = 94,000) | AID 1259370;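 further: score is relative to mean and SD of negative controls; strong numbers were not always called active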
TAR Tat displ = HIV-1 TAR-Tat binding disruption. HIV-1 TAR RNA, Tat peptide displacement FRET; hits give high values. actives 0.6% (n = 100,000). AID 1259389. z-score (no concentration beside the values);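 further: score is relative to mean and SD of negative controls; some compounds called inactive have numbers as strong as hits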
* marks the source's active call; other numbers are inactive results; x = no result given.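 How the source made its calls: active means z-score from 3 up in half or more of its runs; inactive means the rest.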

compound	CDC25B-CDK2 inh	TAR Tat displ
CCCn1c2ccccc2c2cnn(CC(=O)Nc3ccc(NC(C)=O)nc3)c(=O)c21	x	0.36
COc1ccc(CNC(=O)Nc2ncc([N+](=O)[O-])s2)cc1	x	2.46
Cc1ccc2cc(F)ccc2c1	-0.58	x
Cc1c(C(=O)N2CCCC2)oc2ccc(S(=O)(=O)N3CCC4(CC3)OCCO4)cc12	-0.86	x
O=C(Cn1ncc2c3ccccc3n(Cc3ccccc3)c2c1=O)NC1CCCC1	-0.81	-0.13
O=c1[nH]c(-c2ccccn2)nc2c1Cc1cc(F)ccc1O2	-0.68	1.96
CCCC(=O)Nc1ccc(SCc2cc(=O)n3c(ncn3C(C)C)n2)cc1	-3.8	0.19
COC(=O)C1=C(C)NC2=C(C(=O)CC(c3ccc(Cl)cc3)C2)C1c1ccccc1Cl (stereo not drawn)	-3.15	1.17
CC1=C(C#N)C(c2cccc(Oc3ccccc3)c2)C2=C(CCCC2=O)N1 (stereo not drawn)	-0.82	0.09
CCOC(=O)CSC(=S)Nc1ccccc1OC	-0.44	x
O=C(c1ccccc1)c1cnc2cc3c(cc2c1S(=O)(=O)c1ccccc1)OCCO3	1.11	-1.91
CCCCN(Cc1cc2cc(OC)ccc2[nH]c1=O)S(C)(=O)=O	1.15	1.22
O=C1c2ccccc2C(Nc2ccc3c(c2)OCCO3)N1c1ccccn1 (stereo not drawn)	-0.69	-0.69
CCN1CCN(S(=O)(=O)c2ccc3c(c2)NC(=O)C(C)CS3)CC1 (stereo not drawn)	x	1.55
O=C(CCC1=NS(=O)(=O)c2ccccc2N1)N1CCCC1	x	-0.62
Cc1nc2cccnc2n1-c1cc(C(=O)O)ccc1Cl	-0.03	-0.61
CCOC(=O)c1sc2nc(CC(=O)OC)nc(NCC(=O)OC)c2c1C	0.41	x
CCC(C)NC(=O)CCc1c(C)nc2nc(C)nn2c1C (stereo not drawn)	-0.68	0.74
Cc1nn(CCCC(=O)NCC2CCCO2)c(=O)c2cc3occc3n12 (stereo not drawn)	-0.45	0.86
O=C1CCc2cc(S(=O)(=O)NC(Cc3ccccc3)C(=O)Nc3ccccn3)ccc2N1 (stereo not drawn)	-0.4	x
COc1ccc(C(=O)/C=C/OC(=O)c2cc(C(F)(F)F)cc(C(F)(F)F)c2)cc1	-0.98	x
Cc1ccc2oc(=O)c3cnn(CC(=O)N(Cc4ccccc4)C(C)C)c3c2c1	-0.31	1.43
CN1CCN(CCCNC(=O)CCC(=O)N2Cc3ccccc3Oc3ncccc32)CC1	x	1.52
CN(Cc1ccccc1)[C@H]1CS(=O)(=O)C[C@@H]1S(=O)(=O)c1ccccc1	-0.29	-2.18
CC1=C(c2cccc(Br)c2)S(=O)(=O)N=C1Nc1cc(F)ccc1F	-1.37	-0.22
O=C1CNC(=S)N1CCc1cnc[nH]1	-0.95	x
O=C(Cn1ncc2c1-c1ccccc1OC2)Nc1nccs1	-1.74	1.01
CC1Cc2cc(S(=O)(=O)NCC3CCCO3)ccc2N1C(=O)C1CC1 (stereo not drawn)	x	-0.79
O=C(CS(=O)(=O)c1cccc2nsnc12)Nc1cc(F)ccc1F	x	0.55
Cc1nc2nc[nH]n2c(=O)c1CCC(=O)O	-1.92	1.72
COc1ccc(NC2=CC(=O)CC(C)(C)C2)c(OC)c1	-1.71	-0.23
COc1ccc(C2CC(=O)C3=C(C2)Nc2ccccc2NC3c2ccccc2OC(C)C)cc1 (stereo not drawn)	-0.27	1.1
O=C(CSc1ncc(S(=O)(=O)c2ccccc2)c(=O)[nH]1)Nc1ccc(Cl)cc1	-0.37	-0.78
N#C/C(=C\c1ccc[nH]1)C(=O)NCc1ccncc1	-1.36	x
O=C(Cn1cnc2c(nc3n2CCCCC3)c1=O)NCCCN1CCOCC1	-1.46	-0.16
CCCSCCCNC(=O)NC1COc2ccc(OC)cc2C1 (stereo not drawn)	x	0.16
COc1ccc(S(=O)(=O)Nc2cc(N3CCCS3(=O)=O)ccc2C)cc1C	x	-0.03
COc1ccc(-n2cc(-c3ccccc3)c3c(N4CCCC4)ncnc32)cc1	-0.64	x
COc1ccc(-c2cc(-c3ccccc3)nc(SCC(N)=O)c2C#N)cc1	-1.84	0.74
O=C(NCC1CCCO1)c1ccc2c(=O)n3c(nc2c1)CCCC3 (stereo not drawn)	x	2.48
O=C(Nc1ccc(F)cc1F)c1cc2n(n1)C(C(F)(F)F)C1CCCCC1N2 (stereo not drawn)	-0.21	x
Cc1nn2cnnc2c(C)c1CCC(=O)N1CCC(C)CC1	x	-1.32
O=C(CCc1nnc2ccc(N3CCCCC3)nn12)Nc1ccc(F)cc1	x	-1.07
Cc1cccc(NC(=O)CCc2nnc3ccc(N4CCCC4)nn23)n1	x	0.06
COc1cccc2c1OC1(CCCCC1)N1N=C(c3cccs3)CC21 (stereo not drawn)	-2.25	x
Cn1nnnc1SCCCNCc1ccc(-c2ccc(F)cc2)o1	-0.28	0.23
COc1ccc(N2C(=O)N(c3ccccc3OC)C3CS(=O)(=O)CC32)cc1 (stereo not drawn)	-1.5	0.74
CCCCCNC(=O)c1cc2c(=O)n3cccc(C)c3nc2n1C	x	0.48
COc1c(Cl)cc(Cl)c(OC)c1C(=O)Nc1cccc(OC(C)C)c1	-1.16	x
Cc1ccc(N/C=C(\C#N)C(=O)c2cc(C(C)(C)C)on2)cc1	-1.83	x
Cc1ccc2scc(N3CCC(C(N)=O)CC3)c(=O)c2c1	x	-0.09
CCOc1cc2c(cc1OCC)C1CC(=O)N(c3ccc4c(c3)OCO4)C(=O)N1CC2 (stereo not drawn)	x	0.29
CCOc1ccc(OCC)c(NS(=O)(=O)c2c(C)[nH]c(C)c2C(=O)N2CCCC2)c1	x	-0.4
CCN1CCN(C(c2cccs2)C(C)NC(=O)CC(C)C)CC1 (stereo not drawn)	-1.31	x
COc1ccc(N=CC2=C(Cl)c3cc(F)ccc3OC2)cc1	-0.18	x
COc1ccc(CC(=O)Nc2ccc(S(N)(=O)=O)cc2)cc1OC	-0.3	x

Continued.
compound	CDC25B-CDK2 inh	TAR Tat displ
Cc1c(O)cccc1C(=O)N[C@@H](CSc1ccccc1)[C@H](O)CN1C[C@H]2CCCC[C@H]2C[C@H]1C(=O)NC(C)(C)C	-0.52	-0.72
O=C(NCc1nnc(SCC(=O)N2CCOCC2)o1)c1ccco1	0.56	1.22
O=C1c2cnccc2CN1CCc1ccc(Cl)cc1	x	1.41
O=C1O[C@@H]2C[C@H]3C[C@@H]2[C@@H]1[C@H]3C(=O)N1CCN(c2ccc(F)cc2)CC1	-1.37	0.31
C=Cc1ccc(Cn2c(C)c(CNCc3ccc4c(c3)OCO4)c(C(=O)O)c2C)cc1	0.85	0.09
CCCCCNC(=O)CC(C)(C)CC1=NS(=O)(=O)c2ccccc2N1	x	0.98
CCOC(=O)c1c(C)oc2ccc(OC(=O)N3CCOCC3)cc12	-1.37	0.8
CC1=C(C(=O)NC2CCC(C)CC2)C2(CCN(S(=O)(=O)c3cccs3)CC2)OC1=O (stereo not drawn)	x	-0.61
CCOCCCNC(=O)C(CC(C)C)N1Cc2ccccc2C1=O (stereo not drawn)	x	1.42
Cc1cc(=O)[nH]c2c1cnn2C1CCCCC1	1.25	2.48
CC1CCCCN1CCNC(=O)C1CCN(c2nn3c(=O)c4c(nc3s2)CCCC4)CC1 (stereo not drawn)	x	1.33
CCOC(=O)c1c(NC(=O)CCN2C(=O)c3ccccc3S2(=O)=O)sc(C)c1C	-0.31	x
CC(=O)Oc1ccccc1C(=O)OC1=CN(Cc2ccccc2)S(=O)(=O)c2ccccc21	-2.27	-0.09
Cc1ccc(N2CC(O)=C(c3nc4ccccc4n3C)C2=N)cc1Cl	0.07	1.22
CC(Sc1nc2c(c(=O)[nH]1)CCC2)C(=O)Nc1ccccc1 (stereo not drawn)	-0.43	2.18
Cn1c(C(=O)NCCN2CCOCC2)cc2sccc21	-0.51	-1.44
O=C1CSc2ccc(C(=O)NCCCN3CCCCC3)cc2N1	0.09	x
O=C1CCC([N+](=O)[O-])C(c2ccc(Cl)cc2)N1 (stereo not drawn)	-0.91	x
CCCc1nnc2n1NC(c1ccc(F)cc1)C(C(=O)Nc1cc(C)ccc1C)S2 (stereo not drawn)	-0.76	1.1
Nc1nc2c(s1)c(=O)[nH]c(=O)n2-c1ccccc1Cl	0.3	-0.06
O=C(CSc1ccccc1[N+](=O)[O-])NNC(=S)Nc1cccc(C(F)(F)F)c1	-1.25	x
O=C(Nc1ccc2c(c1)OCO2)c1cccn1-c1nnc(N2CCCCC2)s1	x	0.88
CCOC(=O)c1sc(N2C(=O)c3oc4ccc(C)cc4c(=O)c3C2c2ccc(F)cc2)nc1C (stereo not drawn)	0.55	0.83
CC1CC(=O)Nc2cc(S(=O)(=O)N3CCN(C(=O)c4ccco4)CC3)ccc2S1 (stereo not drawn)	x	0.85
Cc1c(C(=O)N2CCCCC2)c(S(=O)(=O)NC(C)(C)C)c(C)n1C	x	-0.16
CC(C#N)(Nc1ccccc1)c1ccncc1 (stereo not drawn)	-1.71	x
O=C(CSc1ccc2nnc(-c3ccccc3)n2n1)NC1CCCCC1	-2.25	x
Cc1sc2c(c1C)CSC(C(=O)Nc1ccc(F)cc1)=C2	x	2.65
CSc1cc(-c2nccs2)nn1C(C)=O	-0.61	x
Cc1ccc(S(=O)(=O)n2nc(C)c(S(=O)(=O)N3CCC(C)CC3)c2C)cc1C	x	0.3
Cn1cnc(S(=O)(=O)NCc2c(Cl)cccc2Oc2ccccc2)c1	-1.32	x
CNC(=O)Nc1ccc2nc(NS(C)(=O)=O)sc2c1	x	1.35
CCc1ccc(S(=O)(=O)NCCc2csc3nc(-c4ccccc4C)nn23)s1	x	-0.77
Cc1cc(C)cc(NC(=O)Nc2nnc(N3CCCC(C)C3)s2)c1 (stereo not drawn)	-1.44	-0.22
O=C(NCc1ccc2c(c1)OCO2)c1cccc2c1C(=O)N(C1CCCCC1)C2	-0.54	0.56
CC(C)N1C(=O)C2(c3ccccc31)N1CC3(C)CN2CC(C)(C1)C3=O (stereo not drawn)	-0.97	x
Cc1nn(C)c2c1c(C(F)(F)F)cc(=O)n2Cc1ccc(Cl)cc1	x	0.87
Oc1ccccc1C1CC(c2cccs2)=NC(c2ccc(F)cc2)N1 (stereo not drawn)	1.59	x
O=C(c1ccc(N2CCOc3ccc(Cl)cc32)s1)N1CCCC1	x	0.2
CCOC(=O)C(NCCOC)(NC(=O)c1ccccc1Cl)C(F)(F)F (stereo not drawn)	-2.11	x
Nc1ccc2c(c1)N(S(=O)(=O)c1ccccc1)CC2	x	0.42
CCOc1ccc(NC(=O)c2cnc3sc4c(n3c2=O)CCCC4)cc1	x	1.1
COC(=O)C1C(=O)C2=C(CC1C)NC(C)=C(C(=O)OC(C)C)C2c1ccc(Cl)cc1 (stereo not drawn)	-0.73	-0.26
CC1(C)Cc2c(C#N)c(SCC(N)=O)nc(N3CCOCC3)c2CO1	-2.46	-0.6
Nc1ccc(N2C(=O)c3ccccc3C2=O)c(Cl)c1	-0.99	x
O=C(O)C1C2C=CC3(CN(CCCN4CCOCC4)C(=O)C13)O2 (stereo not drawn)	-1.21	-0.95
O=C1Nc2cc(C(=O)N3CCCC3)ccc2NC1CS(=O)(=O)Cc1cccc(Br)c1 (stereo not drawn)	x	0.73
COC(=O)C1=C(C)NC2=C(C(=O)CC(C)(C)C2)C1c1cccc(O)c1 (stereo not drawn)	-3.25	-0.45

Four successive records from above:
compound	CDC25B-CDK2 inh	TAR Tat displ
COC(=O)C1C(=O)C2=C(CC1C)NC(C)=C(C(=O)OC(C)C)C2c1ccc(Cl)cc1 (stereo not drawn)	-0.73	-0.26
CC1(C)Cc2c(C#N)c(SCC(N)=O)nc(N3CCOCC3)c2CO1	-2.46	-0.6
Nc1ccc(N2C(=O)c3ccccc3C2=O)c(Cl)c1	-0.99	x
O=C(O)C1C2C=CC3(CN(CCCN4CCOCC4)C(=O)C13)O2 (stereo not drawn)	-1.21	-0.95

The listing picks up; the 5 compounds before the break are reprinted first.
compound	CDC25B-CDK2 inh	TAR Tat displ
CC1(C)Cc2c(C#N)c(SCC(N)=O)nc(N3CCOCC3)c2CO1	-2.46	-0.6
Nc1ccc(N2C(=O)c3ccccc3C2=O)c(Cl)c1	-0.99	x
O=C(O)C1C2C=CC3(CN(CCCN4CCOCC4)C(=O)C13)O2 (stereo not drawn)	-1.21	-0.95
O=C1Nc2cc(C(=O)N3CCCC3)ccc2NC1CS(=O)(=O)Cc1cccc(Br)c1 (stereo not drawn)	x	0.73
COC(=O)C1=C(C)NC2=C(C(=O)CC(C)(C)C2)C1c1cccc(O)c1 (stereo not drawn)	-3.25	-0.45
CN1C(=O)c2cc(C(=O)N3CCCC3)nn2CC1(C)C(=O)NC1CCCC1 (stereo not drawn)	x	0.17
Cc1c(C(=O)N2CCC(C)CC2)c(S(=O)(=O)N2CCN(c3ccccn3)CC2)c(C)n1C	x	1.63
COc1ccc(N2C(=O)C3C4C=CC(C3C2=O)C2C(=O)N(c3ccc(OC)cc3)C(=O)C42)cc1 (stereo not drawn)	-0.63	x
C=CCOc1ccc(C2c3c(oc4cc(C)c(C)cc4c3=O)C(=O)N2CCOC)cc1OC (stereo not drawn)	-0.07	0.79
Cc1nc2ccccc2n1CCOc1ccc(Cl)cc1	-1.38	0.81
Cc1cc(C)cc(NS(=O)(=O)c2ccc3c(c2)CC(C)N3C(=O)C2CC2)c1 (stereo not drawn)	x	1.18
COc1ccc(C(=O)OCc2cc(=O)n3nc(C4CCCCC4)sc3n2)cc1	x	0.51

Bioassay records (PubChem)
